Screens (PubChem)
BJeLR viability – MLPCN primary cell-based screen for lethality selective to Ras in HRASV12 cells; BJeLR (HRASV12) viability, CellTiter-Glo ATP luminescence, 48 h; reference of the scale not given here; inhibition, % (concentration not given with the values); 300,000 tested, 0.17% active; AID 1554, 2009;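 active = replicate mean above 50%; inconclusive = above 50% but judged a plate artefact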;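 note: 50 nL library stock added to about 25 µL; numbers are from one replicate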
Mtb hypoxia rep – PubChem AID 1159583. 300,000 tested, 0.1% active. fluorescence inhibition, % (no concentration beside the values). M. tuberculosis hypoxia-regulated fluorescent reporter, fluorescence;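 active = 35 to 45% if threefold the growth effect, above 45% if 1.5-fold the growth effect; inactive = the rest, general growth blockers included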;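 note: wells of about 50 µL received 100 nL stock; 0% = vehicle wells and 100% = reference inhibitor wells; whole bacteria with a GFP reporter of the hypoxia response; strong numbers were not always called active; many hits fall short of the cut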
Sa RN4220 lethal – growth inhibition of S. aureus RN4220, primary screen, OD600. 330,000 tested, 0.33% active. 16 h. inhibition, % (test concentration not listed);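 active = z-score of -3 or lower and OD600 up to 0.18 on both plates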;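 note: plate controls were untreated cells for no effect and reference antibiotic for full effect; stock transfer was 100 nL into about 80 µL; one replicate is shown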
PrP UTR inh – inhibition of PrP 5' UTR reporter expression; inhibition, % (concentration not given with the values); cell-based PrP 5' UTR mRNA reporter, plate reader; 340,000 tested, 0.35% active; AID 488862, 2010;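 active = every replicate at 50% or more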;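 note: 0 = median of the neutral control wells; tested in H4 reporter cells; numbers are from one replicate; inactives centre near -14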
ugtP null kill – growth inhibition of ugtP-null S. aureus, primary screen, RN4220 ugtP deletion, OD600 | growth inhibition, % (concentration not given with the values) | 16 h; some inactives read as strong as hits | 330,000 tested, 0.54% active;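 active = z-score under -3 and OD600 up to 0.15 on both plates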;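 note: plate controls were untreated wells for no effect and antibiotic for full effect; wells of about 80 µL received 100 nL stock; the first replicate is given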
Autofluor counter – counter-screen for toxin protease inhibitors: compound fluorescence. AID 624483. compound autofluorescence counterscreen, microsphere flow cytometry; hits give high values. 360,000 tested, 3.1% active. fluorescence intensity (test concentration not listed);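 active = at least 3 SD above the mean of all compounds, about 16000 in these data; inconclusive = too few beads counted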;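 note: 100 nL of 1 mM stock went into each well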
Mtb hypoxia rep growth – further read-out of Mtb hypoxia rep, marked with its call; growth inhibition, %; measured here: M. tuberculosis growth (absorbance);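 0% = vehicle and 100% = reference antibiotic; read after six days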
Numbers without * were called inactive; ? = inconclusive; . = not tested or not shown.

Below each SMILES – Mtb hypoxia rep growth, Mtb hypoxia rep, Sa RN4220 lethal, BJeLR viability, ugtP null kill, PrP UTR inh, Autofluor counter
COc1ccccc1Nc1nc(N)nc(CN2CCc3ccccc3C2)n1
    ., ., -0.2, -3, 1, -27, 2860
CCOc1ccccc1OCC(=O)OCc1csc(CC(=O)Nc2ccccc2C)n1
    -3, 2, 6.2, 2, 11, -15, ?
CC(=O)Nc1ccc(S(=O)(=O)NCCc2ccc(F)cc2)cc1
    9, 12, 4.9, -4, 6, -22, 19405*
O=C(N/N=C\c1ccc(O)c([N+](=O)[O-])c1)c1ccccc1-n1cccc1
    ., ., ., -8, ., 1, 1951
O=c1oc(-c2ccc(O)c(O)c2)cc2cccc(O)c12
    ., ., 13, ., -9, -64, 6324
O=C(Cc1ccccc1)Nc1ccc(C(=O)Nc2ccccc2C(=O)O)cc1
    15, 11, -0.1, -12, 7, -31, 5794
CC1Cc2ccccc2N1C(=O)CSc1nc(-c2ccco2)cc(C(F)(F)F)n1 (configuration not stated)
    -1, -1, 4.3, -10, 6, -17, 4450
C=CCN1C(=O)C(CC(=O)Nc2ccccc2)SC1=Nc1ccc(S(N)(=O)=O)cc1 (configuration not stated)
    4, 7, 2.8, 14, 8, -7, 10893
CN(Cc1ccccc1)S(=O)(=O)c1ccc(OCC(=O)NCc2ccncc2)cc1
    2, 4, 4.6, 2, 10, -9, 3339
COc1ccc(C(=O)OC2CCN(c3ncc(C(F)(F)F)cc3Cl)CC2)cc1
    3, 2, 2.7, -1, 63, -20, 5195
CC1CN(C(=O)Nc2ccc(F)cc2F)CC(C)O1 (configuration not stated)
    7, 12, 3.9, -2, -2, -2, 5204
CCOC(=O)c1sc(N(Cc2ccccc2)C(=O)CSc2nnc(C3CC3)n2N)nc1C
    -3, 2, 1.2, -1, 10, -16, 3290
CC(C)C(NC(=O)/C=C/c1ccc(F)cc1)C(C)C
    -7, 4, -11, 10, -7, -24, 2503
Nc1ccc(C2(c3ccc(N)cc3)CCCCC2)cc1
    -2, -4, 0.7, 4, 7, -12, 4474
S=c1[nH]nc(C2CCCCC2)n1/N=C/c1ccc(Br)cc1
    ., ., ., 3, ., 2, 3651
Cc1cc(C)nc(N/N=C/c2cc3c(cc2[N+](=O)[O-])OCO3)n1
    ., ., ., -5, ., -32, 3106
Cc1cc(NC(=O)CSCC(=O)Nc2ccccc2Oc2ccccc2)no1
    1, -3, 3.0, -6, 4, -15, 4415
CCOC(=O)c1ccc(NC(=O)c2nc[nH]c2C(=O)N[C@@H](CC(C)C)C(=O)OCc2ccccc2)cc1
    ., ., ., 7, ., -20, 4062
Cc1cc[n+](CCc2ccccc2)cc1C
    -4, -1, 0.4, 7, -1, -25, 3887
CCCCOc1ccccc1N
    9, -1, 5.7, 1, 5, -17, 3901
NCCNCCNCCN
    ., ., ., -1, ., 89*, 5948
COC(=O)c1oc2ccccc2c1N
    6, 8, 4.8, -5, 7, -19, 2405
O=C(CCCNS(=O)(=O)c1cccc2nsnc12)NCCc1ccccc1
    20, 1, -0.7, 0, -4, -28, 4322
CCOc1ccccc1OCCCC(=O)Nc1ccc(Cl)c(S(=O)(=O)N2CCOCC2)c1
    -7, 6, 4.1, ., -2, -13, 4024
Cc1ccc(-c2csc(NC(=O)C3CC=CCC3C(=O)O)c2C(=O)OC(C)C)cc1 (configuration not stated)
    ., ., 36, 10, 18, -28, 2270
CSc1ccc(CNc2ccc(Cl)cc2)cc1
    -4, 9, -4.7, -5, 14, -68, 7407
Cc1ccnc2c1ccc1ccccc12
    -4, -5, 4.7, 3, 15, 9, 3087
CC1CC(=O)N(C)c2cc([N+](=O)[O-])ccc2N1 (configuration not stated)
    5, 2, 6.0, 6, 3, -13, 4685
CC(NC(=O)COc1ccccc1)C(=O)NC1=NCCS1 (configuration not stated)
    1, -4, -3.3, 8, -8, -13, 12448
COc1cccc(-c2nnn(CC(=O)N3CCC(C)CC3)n2)c1
    -4, 10, 1.6, 2, 3, -26, 3820

Pulled by compound from the list above (4):
Below each SMILES – Mtb hypoxia rep growth, Mtb hypoxia rep, Sa RN4220 lethal, BJeLR viability, ugtP null kill, PrP UTR inh, Autofluor counter
CC1CC(=O)N(C)c2cc([N+](=O)[O-])ccc2N1 (configuration not stated)
    5, 2, 6.0, 6, 3, -13, 4685
Cc1cc(C)nc(N/N=C/c2cc3c(cc2[N+](=O)[O-])OCO3)n1
    ., ., ., -5, ., -32, 3106
CC(NC(=O)COc1ccccc1)C(=O)NC1=NCCS1 (configuration not stated)
    1, -4, -3.3, 8, -8, -13, 12448
CCOC(=O)c1ccc(NC(=O)c2nc[nH]c2C(=O)N[C@@H](CC(C)C)C(=O)OCc2ccccc2)cc1
    ., ., ., 7, ., -20, 4062

Next structures follow.
Below each SMILES – Mtb hypoxia rep growth, Mtb hypoxia rep, Sa RN4220 lethal, BJeLR viability, ugtP null kill, PrP UTR inh, Autofluor counter
Cc1ccc(C(=O)OCC(=O)NNC(=O)c2ccc([N+](=O)[O-])cc2)o1
    8, 2, 3.3, 0, 5, -12, 5138
CCOC(=O)c1sc2nc(N3CCOCC3)c3c(c2c1N)CCCC3
    ., ., -2.9, -9, 1, 4, 3888
CCOC(=O)CNC(=O)c1cc2c(=O)[nH]c3ccc(C)cc3c2s1
    11, -9, 5.2, -4, 3, 2, 3697
CC(=O)Nc1ccc(NC(=O)Cn2c(=O)n(-c3ccc(F)cc3)c(=O)c3oc4ccccc4c32)cc1
    11, 12, 3.4, -21, 3, -14, 4598
CCN(CC)S(=O)(=O)c1ccc2nc(SC)sc2c1
    14, 11, 6.3, 16, -6, 8, 18930*
COc1ccccc1N1CCN(S(=O)(=O)c2cn(C)c(=O)n(C)c2=O)CC1
    7, 3, 1.2, 4, 2, -5, 5670
COc1ccc2cc3cc(C(=O)NCCN4CCc5ccccc5C4)sc3nc2c1
    0, 14, 0.7, 11, 18, -146, 2574
Cn1cccc1/C=N/n1c(-c2ccccc2)n[nH]c1=S
    ., ., ., -4, ., -14, 2456
CCc1nnc(NC(=O)C2c3ccccc3Oc3ccccc32)s1
    ., ., 0.4, -10, -11, -5, 4719
O=S(=O)(Nc1nc2ccccc2nc1N1CCc2ccccc2C1)c1ccc(Cl)cc1
    ., ., ., 13, ., -35, 7188
N/C(=N\OC(=O)CCCN1C(=O)c2ccccc2C1=O)c1ccc(Br)cc1
    ., ., ., 1, ., -24, 3395
CCC(C)(C)NC(=O)C(c1ccccc1Cl)N(C(=O)CCC(=O)Nc1cc(C)on1)c1ccc(NC(C)=O)cc1 (configuration not stated)
    -3, 2, 1.9, -2, 13, -20, 2774
CCN1C(=O)N[C@@H](c2cccs2)C(C(=O)OC)=C1C
    ., ., ., -5, ., -12, 4040
COC(=O)CSc1nc2cc(C)ccc2cc1C#N
    9, 0, 2.2, 2, -7, -73, 4193
Cc1oc2c(c1C(=O)Nc1ccc(C(=O)O)cc1)CCCC2
    2, 0, 5.1, -12, 7, -7, 17117*
CC(C)CNC(=O)COC(=O)c1ccc(Cl)c(S(N)(=O)=O)c1
    ., ., 0.9, 4, 1, -4, .
O=C(Cc1ccc2c(c1)OCCO2)Nc1ccc(Cl)c(S(=O)(=O)N2CCOCC2)c1
    7, 7, 2.5, ., -2, -38, 2874
O=c1[nH]c(NC2CCCCC2)nnc1Cc1ccccc1
    7, 8, 4.6, 0, 12, -4, 3270
Cc1cc2c(c(=O)o1)C(c1cccs1)C(C#N)=C(N)O2 (configuration not stated)
    -1, 3, 8.4, -8, 16, -17, 2574
COc1ccc(N2C(=O)CC(Nc3ccc(N4CCOCC4)cc3)C2=O)c(OC)c1 (configuration not stated)
    8, 6, 0.3, 2, 5, -27, 3240
COc1cc2c(cc1OC)C(c1ccc(C)o1)CC(=O)N2 (configuration not stated)
    11, 12, -4.9, 10, 9, -6, 4667
COc1cc(C(=O)Nc2ccc3c(c2)ncn3C(C)(C)C)cc(OC)c1OC
    7, 19, 1.1, 6, -3, 7, 3394
CCCCc1ccc(N2C(=O)[C@@H]3C(CC(N)=O)NC4(C(=O)Nc5ccc(F)cc54)[C@@H]3C2=O)cc1 (some centres not stated)
    5, 7, 6.6, -12, -5, -12, 10824
Cc1c(CCOC(=O)CC23CC4CC(CC(C4)C2)C3)sc[n+]1CC(=O)c1ccccc1
    7, 7, -1.9, 9, 16, -23, 4320
O=C(CSc1cccs1)Nc1cccc2ccccc12
    6, 13, 16, -6, 8, -51, 8026
CCOC(=O)c1ccc(N/C=C/C(=O)c2ccco2)cc1
    2, 1, 3.9, 10, -12, -101, 10997
O=C(CCC(=O)c1ccccc1)NCCOc1ccccc1
    -1, -14, 7.0, 4, 3, -15, 4413
O=C(Nc1cc(Cl)ccc1Cl)c1ccc(-c2ccccc2)cc1
    2, 6, 2.5, 12, -3, -18, 2449
Clc1ccccc1-c1nnc(-c2cccnc2)o1
    13, 20, 5.3, 5, -3, -28, 3929
COc1ccc(C(=O)Nc2cccc(C(=O)N/N=C/c3ccc(OC)cc3OC)c2)cc1
    ., ., ., 0, ., 42, 3190
Cc1cc(NC(=O)CSc2nnc(-c3ccncc3)n2Cc2ccccc2)n(-c2ccccc2)n1
    -1, 4, 1.4, 1, 5, -6, 3521
Cc1ccccc1NC(=O)C(C)OC(=O)CCC(=O)N(CC(C)C)c1c(N)n(CC(C)C)c(=O)[nH]c1=O (configuration not stated)
    -5, -2, 3.7, -1, 9, -31, 3986
COc1ccc(C2C3C(=O)N(C(C)(C)C)C(=O)C3[C@]3(CC(C)C)C(=O)N(c4ccccc4)C(=O)N23)cc1 (some centres not stated)
    7, 9, 2.3, ., -1, ., .
COc1ccc(C)cc1NC(=O)C1CCCN(S(=O)(=O)c2cccs2)C1 (configuration not stated)
    9, 9, 4.6, -19, 3, -26, 3691
CC1(C)CC(=O)C2=C(C1)N(CCN1CCOCC1)C1=C(C(=O)CC(C)(C)C1)C2c1cccc(F)c1
    ., ., -3.3, -8, 0, -14, .
Cc1ccc2c(C)c(C(=O)Nc3nnc(C)s3)oc2c1
    0, -1, -3.3, -6, -4, -14, 2294
COc1ccc(NC(=O)Cn2c(C(C)C)nc(C)cc2=O)cc1Cl
    1, -1, 1.6, 1, -5, 0, 3441
CN1CCN(/C=N/C2=C(C#N)C(c3ccccc3)C3=C(CC(C)(C)CC3=O)O2)CC1 (configuration not stated)
    ., ., ., 0, ., -10, 22390*
COc1cccc(NC(=O)CN(C)C(=O)c2cc3ccccc3cc2OC)c1
    0, 4, 4.0, ., 5, -6, 6180
NNC(=O)c1nn(-c2ccc(Cl)cc2)cc1O
    2, 14, 17, 4, 4, -5, 3546
COc1ccc(C(=O)OCC(=O)NC2CC2)cc1OC
    -10, -1, 2.7, ., 1, 2, 2867
COc1ccc(C(CNC(=O)CSc2ccccc2F)N2CCOCC2)cc1 (configuration not stated)
    1, -3, 2.6, -4, -5, 0, 4483
O=C(CCCSc1nc2sc3c(c2c(=O)[nH]1)CCC3)NCCO
    ., ., 2.5, 5, -6, -15, 2732
COc1ccccc1-n1c(CNC(=O)c2ccc(S(=O)(=O)N3CCOCC3)cc2)n[nH]c1=S
    -4, -6, 3.4, -3, 17, -21, 7286
CCc1ccc(OCC(=O)N(CC)CC)cc1
    4, 11, 1.4, -11, 0, -14, 4366
CC(=O)Oc1ccc2c(=O)c(Oc3ccccc3)c(C)oc2c1OC(C)=O
    11, 1, 5.3, 2, 10, 0, 2488
CCC(C)(C)NC(=O)C1CCC(CNS(=O)(=O)c2cccc3nsnc23)CC1 (configuration not stated)
    3, 5, -1.5, -4, 7, -16, 5492
C1=C(c2ccccc2)CCN(c2ncnc3nc[nH]c23)C1
    2, 7, 3.3, 9, 13, -1, 5296
CCOc1ccc(OCCC(=O)OCC(=O)N(CC)c2c(N)n(Cc3ccccc3)c(=O)[nH]c2=O)cc1
    -6, -1, 4.1, ., 12, -11, 3356
FC(F)Oc1ccc(NC(=S)NCc2ccco2)cc1Cl
    7, 16, -5.8, 3, -8, -26, 4543
CCN(C(=O)COC(=O)c1ccc(OCc2c(C)noc2C)cc1)c1ccccc1
    ., ., -3.7, -3, -3, -10, 4928

Compounds above with a tert-butyl group:
Below each SMILES – Mtb hypoxia rep growth, Mtb hypoxia rep, Sa RN4220 lethal, BJeLR viability, ugtP null kill, PrP UTR inh, Autofluor counter
COc1cc(C(=O)Nc2ccc3c(c2)ncn3C(C)(C)C)cc(OC)c1OC
    7, 19, 1.1, 6, -3, 7, 3394
COc1ccc(C2C3C(=O)N(C(C)(C)C)C(=O)C3[C@]3(CC(C)C)C(=O)N(c4ccccc4)C(=O)N23)cc1 (some centres not stated)
    7, 9, 2.3, ., -1, ., .
